# High-throughput results (PubChem)
# MT1-MMP act inh: blockers of MT1-MMP proenzyme processing, primary screen, HT1080 RFP-PRO-GFP cells, GFP/RFP fluorescence | Matrix metalloproteinase-14 (Homo sapiens), P50281 | GFP/RFP ratio fluorescence, overnight; percent of plate control window, DMSO zero | GFP/RFP ratio change, % at 20 µM | 0.061% of 360,000 active | AID 651647, 2012;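 active means GFP/RFP ratio change of at least 30% with cell ATP level not reduced by more than half and red fluorescence within 50% of control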; further: strong numbers were not always called active
#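 Test system: HT1080 cells expressing an RFP-PRO-GFP fluorescent reporter construct / Compound dosing: single-point 20 µM compound, 1% DMSO / Schedule: cells overnight before dosing, compound overnight, 37 °C, 5% CO2 / Evaluation: GFP/RFP fluorescence ratio / Control set: DMSO and RFP-L50D-GFP cell wells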
# Yeast UUG start: modulators of yeast start codon fidelity, primary screen, whole organism, S. cerevisiae, single point, plate reader | S. cerevisiae UUG-firefly luciferase reporter, luminescence/redox ratio | activity score, % at 18.7 µM | 0.13% of 350,000 active | AID 602363, 2012;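 active means replicate mean at a twofold rise or more, about +100% in these data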;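 further: firefly luciferase made from a UUG start codon reports start codon fidelity; reporter light over untreated wells divided by growth signal over untreated wells; some hits fall short of that in this replicate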
# HIV Env fusion: inhibitors of HIV-1 Env-driven cell-cell fusion, primary screen, HeLa-JRFL effector, CEM21 target cells, luciferase; 1.1% of 360,000 active; inhibition, % at 12.3 µM;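 active means mean replicate inhibition score of at least 50 and every replicate individually at or above 50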;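 further: 0% = plate neutral controls and 100% = maraviroc near 300 nM; one replicate is shown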
# Rce1 inhib: yeast Rce1p protease inhibitors, primary screen, biochemical, fluorescence, cell-free homogeneous; CAAX prenyl protease 2 (Saccharomyces cerevisiae (strain ATCC 204508 / S288c)), Q03530; yeast membranes, quenched prenylated peptide cleavage fluorescence; calls only; 0.27% of 290,000 active; AID 2563, 2010;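 active means fall in fluorescence gain of 50% or more versus controls, with final raw signal at or below 3038400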;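 further: plate controls were neutral control wells for no effect and wells lacking membranes for full effect; tested at 10 µM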
# Target sequence (Q03530 whole entry, looked up): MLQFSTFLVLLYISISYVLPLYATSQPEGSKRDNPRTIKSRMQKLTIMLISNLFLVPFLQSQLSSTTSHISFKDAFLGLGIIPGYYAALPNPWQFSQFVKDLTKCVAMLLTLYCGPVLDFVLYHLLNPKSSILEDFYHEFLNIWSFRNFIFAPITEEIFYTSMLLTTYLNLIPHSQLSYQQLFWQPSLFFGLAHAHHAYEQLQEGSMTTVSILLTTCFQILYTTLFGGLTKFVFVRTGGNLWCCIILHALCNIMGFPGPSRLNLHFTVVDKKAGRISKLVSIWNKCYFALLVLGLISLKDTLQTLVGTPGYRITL
# PABP FP inh: PABP poly(A) RNA binding inhibitors, primary screen, biochemical, fluorescence polarization, uHTS. inhibition, % at 35 µM. 1% of 290,000 active;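 active means 50% or more with normal probe brightness, or confirmed in later tests; about a fifth of its hits are not listed in these tables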;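 further: calls also rest on retests at 20 µM and on dose response follow-up; controls were probe without protein and protein plus probe with vehicle; some compounds called inactive have numbers as strong as hits; many hits fall short of the cut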
# Target sequence (P11940 whole entry, looked up): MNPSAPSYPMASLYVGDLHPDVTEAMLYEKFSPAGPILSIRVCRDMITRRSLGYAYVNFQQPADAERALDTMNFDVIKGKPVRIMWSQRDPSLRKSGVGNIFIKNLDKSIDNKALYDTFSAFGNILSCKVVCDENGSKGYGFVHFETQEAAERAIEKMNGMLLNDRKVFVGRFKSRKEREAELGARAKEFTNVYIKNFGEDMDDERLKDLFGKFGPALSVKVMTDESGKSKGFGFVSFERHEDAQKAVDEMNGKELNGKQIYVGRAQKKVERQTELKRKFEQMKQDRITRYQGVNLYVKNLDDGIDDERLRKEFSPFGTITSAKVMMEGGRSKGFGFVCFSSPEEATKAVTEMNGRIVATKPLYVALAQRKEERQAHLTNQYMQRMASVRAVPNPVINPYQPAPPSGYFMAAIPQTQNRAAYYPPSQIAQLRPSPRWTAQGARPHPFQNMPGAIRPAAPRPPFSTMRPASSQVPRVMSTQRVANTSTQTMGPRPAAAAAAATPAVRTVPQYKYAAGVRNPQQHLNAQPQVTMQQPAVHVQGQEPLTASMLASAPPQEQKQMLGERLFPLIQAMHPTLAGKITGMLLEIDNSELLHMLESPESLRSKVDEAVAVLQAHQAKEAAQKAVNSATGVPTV
# CSC inhib: cancer stem cell viability inhibitors, primary screen, luminescence; cancer stem cell-like cells viability; inhibition, % at 7.5 µM; 1.1% of 300,000 active;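 active means mean at 75% or more and at least half the replicates too; tested in HMLE shEcad cells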;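 further: 0% = median of negative and 100% = median of positive control wells; the first replicate is given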
# eIF4H inh: human eIF4H binding inhibitors, primary screen, translation initiation inhibitor project, biochemical, uHTS, fluorescence polarization; eIF4H fluorescence polarization binding assay; inhibition, % at 35 µM; 0.94% of 290,000 active; AID 2012, 2009;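 active means 50% or more with normal probe brightness, or confirmed in later tests; about a fifth of its hits are not listed in these tables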;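 further: calls also rest on retests at 20 µM and on dose response follow-up; 0% = protein and probe with vehicle and 100% = probe without protein; strong numbers were not always called active; many hits fall short of the cut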
# eIF4H inh retest: second read-out of eIF4H inh, no call of its own (marks repeat the call); inhibition, %; compound at 20 µM; confirmation average;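 mean of two retest wells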
# PABP FP inh retest: further read-out of PABP FP inh, marked with its call; inhibition, %; compound at 20 µM; confirmation repeats;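 mean of two retest wells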
# MT1-MMP act inh RFP: also measured in MT1-MMP act inh; calls as there; RFP signal change, %; measured here: RFP expression control read;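 0 = vehicle wells; hits needed this value within 50% of zero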
# Numbers without * were called inactive; i = inactive; · = not tested or not shown.
SMILES,MT1-MMP act inh,MT1-MMP act inh RFP,Yeast UUG start,HIV Env fusion,Rce1 inhib,PABP FP inh,CSC inhib,eIF4H inh,others
COc1ccc(S(=O)(=O)NCCC(=O)Nc2ccc(C)cc2)cc1,2,2,-16,-2,i,-3,-9,1,
CN(C)CCCN(C(=O)c1ccc([N+](=O)[O-])o1)c1nc2cc3c(cc2s1)OCO3,1,3,4,-21,i,-2,0,-3,
CNc1nc(-c2ccccc2)cc(C(F)(F)F)c1C#N,2,7,5,·,i,83*,15,96*,eIF4H inh retest=105*;PABP FP inh retest=102*
O=C1CC2(CCN(C(=O)c3ccccc3Br)CC2)Oc2ccccc21,-3,-3,2,7,i,·,-6,·,
S=C(NCc1ccco1)Nc1ccc2c(c1)OCCO2,-1,6,·,-10,i,77*,2,-2.7*,eIF4H inh retest=51*;PABP FP inh retest=58*
CCCCN1C(N)=NC[C@@H]1Cc1ccccc1,1,0,-13,-31,i,·,9,·,
CC(=O)NCC1CCCN(c2nc3nonc3nc2N(C)Cc2ccccc2)C1 (stereo not drawn),3,3,·,6,i,5,-2,-5,
OC(c1ccc(Cl)cc1)C(O)c1nc2ccccc2[nH]1 (stereo not drawn),1,1,-10,-7,i,4,-3,-1,
Cc1ccc2c(c1)[nH]c1c(=O)n(CCN3CCCCC3)cnc12,6,5,-1,·,i,-2,-4,0,
Cn1c(=O)c2c(ncn2CC(=O)N2CCOCC2)n(C)c1=O,5,9,·,·,i,13,-12,5,
C/C(=N\NC(=O)c1ccc(O)cc1)c1cccc(NC(=O)c2ccccc2C)c1,-1,-3,-11,-135,i,6,23,6,
O=C1C2C3CCC(C3NCc3ccccc3)C2C(=O)N1Cc1ccccc1 (stereo not drawn),0,-7,·,·,i,-1,4,-9,
Nc1ccc(C(=O)NCC2(c3ccccc3)CCCC2)cc1,4,4,-15,12,i,5,5,-8,
CCOC(=O)CNc1nc(Cl)nc(Nc2ccc(C)cc2)n1,-4,2,-21,-8,i,-3,-11,-1,
CCCCN1CC2([N+](=O)[O-])C=CC(=O)C([N+](=O)[O-])(C1)C2CC(=O)c1ccccc1 (stereo not drawn),-1,4,-9,14,i,1,-7,-2,
COc1ccc(C(=O)NCCn2cc(SCC(=O)Nc3nnc(C)s3)c3ccccc32)cc1,-2,-4,·,·,i,·,-1,·,
COc1ccc(-c2ccc(SCC(=O)Nc3nnc(C)s3)nn2)cc1,-1,-2,·,-39,i,14*,-14,55*,eIF4H inh retest=68*;PABP FP inh retest=51*
Cc1ccccc1Oc1nc2ccccc2n2cnnc12,-2,-1,·,13,i,-14,-11,-10,
Cc1cc(C(C)(C)C)ccc1OCCN1CCCC1,8,5,-19,22,i,21,58,-6,
CC1C/C=C/C=C/C=C/C=C/C(O[C@@H]2O[C@H](C)[C@@H](O)[C@H](N)[C@@H]2O)CC2OC(O)(CC(O)CC3OC3/C=C/C(=O)O1)CC(O)C2C(=O)O (stereo partly drawn),·,·,·,24,·,0,·,42,
COc1ccc(CC(=O)NCc2n[nH]c(=S)n2-c2cccc(Cl)c2)cc1,-4,4,-14,2,i,-7,-2,2,
Cc1ccc(CCN2CC(C(=O)NCCCN3CCCCC3)CC2=O)cc1 (stereo not drawn),1,2,-7,-6,i,·,-4,·,
COc1ccc(-c2nc3ccccc3o2)cc1NC(=O)CSc1ccc(Cl)cc1,0,2,·,22,i,1,17,-2,
O=C(Nc1ccc(CN2CCOCC2)cc1)c1ccc(-c2cccc(Cl)c2)o1,0,-14,-9,77*,i,-18,52,-3,
CCCCCC(=O)NCC(C)NC(=O)CCCCC (stereo not drawn),3,6,·,-33,i,4,·,6,
COc1ccc(Cn2nnnc2C(c2cc3ccc(OC)cc3[nH]c2=O)N2CCC(C)CC2)cc1 (stereo not drawn),-16,3,-6,36,i,13,2,8,
CCSc1nc2c(cnn2-c2ccccc2)c(=O)n1N,2,3,-8,-12,·,0,-2,-12,
Cn1cc(CN2CCC(n3nccc3NC(=O)CCc3ccccc3)CC2)cn1,-2,4,0,13,i,8,-15,-4,
CN(CC(=O)Nc1cccc(F)c1)C(=O)Cn1c(=O)cnc2ccccc21,-5,0,·,7,i,·,0,·,
CCn1c2ccccc2c2cc(NS(=O)(=O)c3ccc(C)cc3)ccc21,-4,0,3,·,i,2,84*,1,
COCCNC(=O)c1ccc(C2SCC(=O)N2CCc2ccccc2)cc1 (stereo not drawn),-2,-7,11,1,i,0,-17,-5,
Cc1ccc2nc3c(cc2c1)c(NC(=O)C1CCCO1)nn3CC(C)C (stereo not drawn),9,1,-6,27,i,-4,2,2,
CN(c1ccccc1C(=O)O)S(C)(=O)=O,-3,6,-3,-15,i,15,-20,-10,
O=C1[C@H]2[C@H](ON3CCCC[C@H]23)C(=O)N1c1cccc(C(F)(F)F)c1,2,1,·,17,i,-9,0,-3,
CC1(C)Cc2c(sc3c2c(=N)n(Cc2ccco2)c(=O)n3CC(=O)Nc2ccc(Cl)cc2)CO1,0,-2,·,·,i,0,-6,-14,
O=C(c1cccs1)N1CCCC1,6,1,-26,-23,i,-12,11,-1,
CC(C)(C)C(=O)Nc1c(Br)c(C2CC2)nn1-c1ccccc1,-2,3,6,-29,i,10,-6,-4,
O=C(Nc1cc(SCC(O)CO)cc([N+](=O)[O-])c1)c1ccc(-n2cnnn2)cc1 (stereo not drawn),-3,3,·,0,i,4,-11,-5,
Cc1cc(C)n(-c2ccc(F)cc2CN2CCN(C3CCCC3)C(CCO)C2)n1 (stereo not drawn),-6,-2,-5,-5,i,1,2,-12,
CC1CCCN(C(=O)CN2C(=O)c3ccccc3S2(=O)=O)C1 (stereo not drawn),0,3,-2,·,·,·,-21,·,

# Overlap with the part before: 2 compounds; new compounds follow.
SMILES,MT1-MMP act inh,MT1-MMP act inh RFP,Yeast UUG start,HIV Env fusion,Rce1 inhib,PABP FP inh,CSC inhib,eIF4H inh,others
Cc1cc(C)n(-c2ccc(F)cc2CN2CCN(C3CCCC3)C(CCO)C2)n1 (stereo not drawn),-6,-2,-5,-5,i,1,2,-12,
CC1CCCN(C(=O)CN2C(=O)c3ccccc3S2(=O)=O)C1 (stereo not drawn),0,3,-2,·,·,·,-21,·,
O=C(Nc1ccc(N2CCCC2)cc1)c1cccc(Cl)c1Cl,-3,-2,-5,-42,i,-8,32,-8,
Cc1cc(Br)ccc1NC(=O)C1C2CCC(O2)C1C(=O)O (stereo not drawn),4,1,-24,-14,i,-2,-8,-3,
Cc1c(NC(=O)Nc2ccc3c(c2)OCO3)cccc1[N+](=O)[O-],4,1,-19,·,i,8,·,2,
CCCCn1c(N)c(N(Cc2ccccc2OC)C(=O)C(C)Oc2cccc(Cl)c2)c(=O)[nH]c1=O (stereo not drawn),-1,-1,2,-18,·,·,·,·,
COc1ccc(S(=O)(=O)N2CCC(C(=O)N3CCN(C)CC3)CC2)cc1Cl,1,3,-5,12,i,11,-11,-4,
Cc1ccc(S(=O)(=O)/N=C2/NC(=O)/C(=C\c3cc(Br)cc(Br)c3O)S2)cc1,5,51,5,·,i,41,29,46,
N#Cc1nc(COc2ccccc2)oc1N1CCN(Cc2ccccc2)CC1,-1,0,-3,-35,i,-7,23,1,
Cc1cccc(NC(=O)[C@@H]2CCCN2C2=NS(=O)(=O)c3ccccc32)c1C,5,0,5,-1,·,·,·,·,
COc1ccc(C(=O)CCC(=O)Nc2ccc(N3CCCCC3)cc2)cc1OC,4,-1,-16,3,i,1,-14,-1,
CCOCCCNC(=O)Cc1cc(=O)[nH]c(=O)[nH]1,0,6,-13,-29,i,-1,10,4,

# Entries shown so far that have a tert-butyl group:
SMILES,MT1-MMP act inh,MT1-MMP act inh RFP,Yeast UUG start,HIV Env fusion,Rce1 inhib,PABP FP inh,CSC inhib,eIF4H inh,others
Cc1cc(C(C)(C)C)ccc1OCCN1CCCC1,8,5,-19,22,i,21,58,-6,
CC(C)(C)C(=O)Nc1c(Br)c(C2CC2)nn1-c1ccccc1,-2,3,6,-29,i,10,-6,-4,

# Continuation.
SMILES,MT1-MMP act inh,MT1-MMP act inh RFP,Yeast UUG start,HIV Env fusion,Rce1 inhib,PABP FP inh,CSC inhib,eIF4H inh,others
CCn1cc(C(=O)Nc2ccc(F)c(F)c2)cn1,9,5,-21,·,i,-1,-3,0,
O=C(COC(=O)c1ccccc1[N+](=O)[O-])NCCCc1ccccc1,-2,-1,-9,7,i,-6,-1,-14,
CC1Oc2cc3oc4c(O)c(O)ccc4c(=O)c3c(O)c2C1(C)C (stereo not drawn),0,-9,-43,·,·,·,0,·,
COc1cc(C(=O)OCn2nnc3ccccc3c2=O)cc(OC)c1OC,1,-4,-5,-117,i,58,8,2,eIF4H inh retest=-1;PABP FP inh retest=2
S=C(Nc1ccc(Cc2ccncc2)cc1)Nc1cccc(Cl)c1,-2,0,-25,-8,i,9,56,-7,
COC(=O)c1sc2ccccc2c1-n1cccc1C(=O)C(=O)Nc1ccc(F)cc1,-2,-3,-13,·,i,-7,6,1,
CCc1c(C)nc(SC(C(=O)O)c2ccccc2)c(C#N)c1C (stereo not drawn),0,0,10,-1,i,1,11,-1,
CCCCn1c(SCC(N)=O)nc2c(sc3ccccc32)c1=O,9,1,·,17,i,-16,-2,-12,
Cc1ccc(C(=O)COC(=O)CCC(=O)Nc2cc(Cl)ccc2Cl)cc1[N+](=O)[O-],2,1,5,·,i,-8,-9,-13,
CN(CCc1ccccc1)C(=O)c1cc(COc2ccc(F)cc2Cl)on1,4,4,-12,-16,i,3,·,7,
COc1cc(NC(=O)C2CCCCC2)c(OC)cc1NC(=O)CN1CCCCC1,7,7,-14,·,i,35,18,9,
Cc1nc2c3ccccc3nc(SCC(=O)N3CC(C)CC(C)C3)n2n1 (stereo not drawn),2,-4,-19,-107,i,1,-11,-5,
CN(C)c1cc2c3ccccc3n(C)c2cc1N,-3,2,-29,10,·,·,·,·,
Cc1ccc(OCc2nnc(SCC(=O)Nc3ccc4c(c3)OCCO4)n2Cc2ccco2)cc1,0,-5,-11,·,i,-6,-4,-4,
Cc1ccc(CN2CCC(Oc3ccc(C(=O)NCc4ccccn4)cc3)CC2)o1,0,4,-17,2,i,-2,-13,2,
CCN(C[C@H]1N[C@@](C)(C(=O)OC)[C@H]2C(=O)N(C)C(=O)[C@@H]12)C(=O)c1ccc(C)cc1,2,5,-12,-7,·,·,-3,·,
Cc1c(NC(=O)CSc2nnc(COc3ccccc3)n2-c2ccccc2)c(=O)n(-c2ccccc2)n1C,1,-2,9,·,i,-3,-4,1,
COc1cc(OC)c(C2=NOC(C(=O)Nc3c(C)n(C)n(-c4ccccc4)c3=O)C2)cc1Cl (stereo not drawn),11,-3,·,20,i,4,6,1,
O=C(NCCN1CCOCC1)c1ccc(-c2ccccc2)cc1,2,0,16,·,i,9,8,1,
CC1=C(C(=O)N2CCOCC2)CC(CC(=O)NC2CC2)C(=O)N1Cc1ccc(C(C)(C)C)cc1 (stereo not drawn),12,15,-12,-11,·,·,·,·,

# Quoted at random: three entries already listed, in no set order.
SMILES,MT1-MMP act inh,MT1-MMP act inh RFP,Yeast UUG start,HIV Env fusion,Rce1 inhib,PABP FP inh,CSC inhib,eIF4H inh,others
Cc1ccc(CN2CCC(Oc3ccc(C(=O)NCc4ccccn4)cc3)CC2)o1,0,4,-17,2,i,-2,-13,2,
Cc1ccc(OCc2nnc(SCC(=O)Nc3ccc4c(c3)OCCO4)n2Cc2ccco2)cc1,0,-5,-11,·,i,-6,-4,-4,
CN(C)c1cc2c3ccccc3n(C)c2cc1N,-3,2,-29,10,·,·,·,·,
